UUG fidelity – modulators of yeast start codon fidelity, primary screen, whole organism, S. cerevisiae, single point, plate reader; S. cerevisiae UUG-firefly luciferase reporter, luminescence/redox ratio; activity score, % at 18.7 µM; hit rate 0.13% among 350,000;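 active = replicate mean at a twofold rise or more, about +100% in these data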;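 note: firefly luciferase made from a UUG start codon reports start codon fidelity; reporter light over untreated wells divided by growth signal over untreated wells; some hits fall short of that in this replicate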
CSC inhib – cancer stem cell viability inhibitors, primary screen, luminescence. AID 2717, 2010. cancer stem cell-like cells viability. inhibition, % at 7.5 µM. hit rate 1.1% among 300,000;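 active = mean at 75% or more and at least half the replicates too; tested in HMLE shEcad cells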;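 note: 0% = median of negative and 100% = median of positive control wells; the first replicate is given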
MT1-MMP act inh – blockers of MT1-MMP proenzyme processing, primary screen, HT1080 RFP-PRO-GFP cells, GFP/RFP fluorescence; Matrix metalloproteinase-14 (Homo sapiens), P50281; hit rate 0.061% among 360,000; GFP/RFP ratio fluorescence, overnight; percent of plate control window, DMSO zero; GFP/RFP ratio change, % at 20 µM;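 active = GFP/RFP ratio change of at least 30% with cell ATP level not reduced by more than half and red fluorescence within 50% of control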; note: strong numbers were not always called active
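Compound: 20 µM single dose, 1% DMSO / System: HT1080 RFP-PRO-GFP cells / Controls: DMSO and RFP-L50D-GFP cell wells / Read-out basis: GFP/RFP fluorescence ratio / Schedule: overnight compound exposure at 37 °C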
eIF4H FP inh – human eIF4H binding inhibitors, primary screen, translation initiation inhibitor project, biochemical, uHTS, fluorescence polarization | Eukaryotic translation initiation factor 4H (Homo sapiens), Q15056 | AID 2012, 2009 | inhibition, % at 35 µM | eIF4H fluorescence polarization binding assay | hit rate 0.94% among 290,000;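 active = 50% or more with normal probe brightness, or confirmed in later tests; about a fifth of its hits are not listed in these tables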;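 note: calls also rest on retests at 20 µM and on dose response follow-up; 0% = protein and probe with vehicle and 100% = probe without protein; strong numbers were not always called active; many hits fall short of the cut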
Env fusion inh – inhibitors of HIV-1 Env-driven cell-cell fusion, primary screen, HeLa-JRFL effector, CEM21 target cells, luciferase | hit rate 1.1% among 360,000 | inhibition, % at 12.3 µM | AID 651610, 2012;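 active = mean replicate inhibition score of at least 50 and every replicate individually at or above 50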;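 note: 0% = plate neutral controls and 100% = maraviroc near 300 nM; one replicate is shown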
Rce1 inhib – yeast Rce1p protease inhibitors, primary screen, biochemical, fluorescence, cell-free homogeneous. CAAX prenyl protease 2 (Saccharomyces cerevisiae (strain ATCC 204508 / S288c)), Q03530. yeast membranes, quenched prenylated peptide cleavage fluorescence. calls only. hit rate 0.27% among 290,000. AID 2563, 2010;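 active = fall in fluorescence gain of 50% or more versus controls, with final raw signal at or below 3038400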;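 note: plate controls were neutral control wells for no effect and wells lacking membranes for full effect; tested at 10 µM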
PABP polyA inh – PABP poly(A) RNA binding inhibitors, primary screen, biochemical, fluorescence polarization, uHTS. AID 2014, 2009. Polyadenylate-binding protein 1 (Homo sapiens), P11940. inhibition, % at 35 µM. hit rate 1% among 290,000;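 active = 50% or more with normal probe brightness, or confirmed in later tests; about a fifth of its hits are not listed in these tables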;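 note: calls also rest on retests at 20 µM and on dose response follow-up; controls were probe without protein and protein plus probe with vehicle; some compounds called inactive have numbers as strong as hits; many hits fall short of the cut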
Target sequence (P11940 whole entry, looked up): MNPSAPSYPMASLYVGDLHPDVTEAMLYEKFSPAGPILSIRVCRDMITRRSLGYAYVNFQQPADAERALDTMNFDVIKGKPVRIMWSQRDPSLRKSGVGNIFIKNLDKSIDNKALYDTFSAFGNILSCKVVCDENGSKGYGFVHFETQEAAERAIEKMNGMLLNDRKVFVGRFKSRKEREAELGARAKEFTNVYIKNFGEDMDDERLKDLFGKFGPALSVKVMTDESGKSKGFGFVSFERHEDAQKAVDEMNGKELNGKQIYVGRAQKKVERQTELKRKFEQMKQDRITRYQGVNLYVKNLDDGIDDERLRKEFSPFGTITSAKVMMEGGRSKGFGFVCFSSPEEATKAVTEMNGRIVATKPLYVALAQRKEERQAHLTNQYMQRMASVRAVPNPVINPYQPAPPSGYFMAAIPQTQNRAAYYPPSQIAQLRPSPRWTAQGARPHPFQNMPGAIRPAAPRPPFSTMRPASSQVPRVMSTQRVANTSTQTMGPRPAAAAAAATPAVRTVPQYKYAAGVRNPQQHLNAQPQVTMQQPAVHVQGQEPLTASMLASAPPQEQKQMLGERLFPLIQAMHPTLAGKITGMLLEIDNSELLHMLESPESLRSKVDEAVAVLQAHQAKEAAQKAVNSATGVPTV
eIF4H FP inh retest – second read-out of eIF4H FP inh, no call of its own (marks repeat the call); inhibition, %; compound at 20 µM; confirmation average;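 mean of two retest wells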
PABP polyA inh retest – recorded beside PABP polyA inh, whose call it bears; inhibition, %; compound at 20 µM; confirmation repeats;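 mean of two retest wells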
MT1-MMP act inh RFP – second read-out of MT1-MMP act inh, no call of its own (marks repeat the call); RFP signal change, %; measured here: RFP expression control read;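 0 = vehicle wells; hits needed this value within 50% of zero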
* hit, by the source's call; i = inactive; / = not tested or not shown; & = joins results of further samples. These rows are one share of the data; count on the stated rates, not on these rows.

SMILES	UUG fidelity	CSC inhib	MT1-MMP act inh	MT1-MMP act inh RFP	eIF4H FP inh	Env fusion inh	Rce1 inhib	PABP polyA inh	others
O=C(CC12CC3CC(CC(C3)C1)C2)NCCN1CCOCC1	-15.5	-1.1	10.1	4.9	0.2	-22.6	i	-2.7
CCN(CC)c1ccc([N+](=O)[O-])cc1C(=O)N1CCOCC1	-13.1	7.6	4.2	3.0	-7.1	-1.6	i	-4.9
Cc1nc2ccccc2n1CC(=O)OCC(=O)N1CCC(C)CC1	-14.4	-10.2	7.6	-17.6	/	23.7	/	/
NC(=O)C(CC(=O)O)NC(=O)[C@@H]1CCOc2c(I)cc([N+](=O)[O-])cc2C(=O)N[C@@H](CCC(=O)O)C(=O)N[C@@H](CO)C(=O)N1 (stereo not given in full)	/	1.0	/	/	6.9	/	/	12.3
CC(NC(=O)COC(=O)c1cc(NS(=O)(=O)c2ccc(Cl)c([N+](=O)[O-])c2)ccc1O)C1CC2CCC1C2 (stereo not given)	-17.0	108.1*	6.9	1.2	0.3	16.3	i	-8.1
CC(=O)Nc1ccccc1Sc1ccc2c3c(cccc13)C(=O)N(c1ccc(C)cc1)C2=O	/	-5.2	1.5	3.6	82.5	4.5	i	11.6	eIF4H FP inh retest=-9.0;PABP polyA inh retest=7.3
O=C(O)CCSc1nc2ccccc2n1CCOc1ccccc1	-11.4	0.7	-0.2	4.2	-7.1	/	i	-4.0
CNC[C@H]1Oc2ccc(NC(=O)C3CCCCC3)cc2CC(=O)N([C@H](C)CO)C[C@@H]1C	-29.8&-9.9	-12.9	-9.1	3.1	/	-3.3	/	/
Cc1ccc(NCc2nc(SCC(=O)Nc3ccccc3)n[nH]2)cc1	-19.8	13.2	-0.6	-0.2	0.6	2.0	i	-6.3
Cc1ccc2nc(-c3ccccc3NC(=O)CCC(=O)O)c(=O)[nH]c2c1	-16.7	/	-4.0	-2.3	10.1	-5.0	i	-4.9
O=C1CCCC2=C1C1(O)C(=O)c3ccccc3C1(O)O2 (stereo not given)	/	-1.8	1.6	6.6	-1.8	/	i	8.3
CCC1Oc2ccc(C)cc2N(CC(=O)N2CCOCC2)C1=O (stereo not given)	-16.5	/	0.9	-1.6	-4.2	2.1	i	0.1
CCN(CC)S(=O)(=O)c1cccc(C(=O)OCC(=O)NC(C)c2ccccc2)c1 (stereo not given)	9.1	-17.4	3.1	4.3	-9.5	10.9	i	6.7
Cc1ccc2[nH]c(=O)c(C(c3nnnn3C(C)(C)C)N3CCN(C(=O)c4ccco4)CC3)cc2c1 (stereo not given)	-10.3	-10.8	-1.1	4.1	2.1	12.3	i	2.0
CCn1c(SCC(=O)O)nc2ccccc21	-9.2	-1.3	1.9	4.4	0.0	-4.2	i	15.2
COc1ccc(C(NC(=O)C2CCN(C/C=C/c3ccc(OC(C)=O)c(OC)c3)CC2)c2ccccn2)cc1 (stereo not given)	-12.0	/	1.1	1.6	/	-13.3	/	/
Cc1cc(C)cc(NCc2cc(=O)oc3cc(-c4ccccc4)c(O)cc23)c1	6.1	21.9	6.9	4.9	1.1	-17.8	i	-6.9
CCCCC(=O)NC(=O)NC(c1ccccc1)c1ccccc1	-1.3	0.2	5.7	2.5	-3.5	16.4	i	-6.3
COc1ccccc1CNC(=O)COC(=O)c1cccc(S(=O)(=O)N2CCOCC2)c1	/	-1.2	1.7	1.5	/	1.2	i	/
Cc1nc(NC(=O)/C=C/c2ccccc2)sc1C(=O)Nc1ccccc1	-10.9	-7.2	4.7	-6.7	-5.2	-3.2	i	-0.6
O=C(NCC(=O)N1CCCC(C(F)(F)F)C1)c1ccc(Oc2ccccc2)cc1 (stereo not given)	-14.9	26.1	4.4	-11.2	-8.6	-0.8	i	1.9
CCOC(=O)C1CCN(C(=O)COc2ccc(S(=O)(=O)NC(C)(C)C)cc2)CC1	-5.3	/	-4.3	-8.5	1.1	/	i	-7.7
CN(CC(=O)N1CCN(c2cccc(Cl)c2)CC1)S(=O)(=O)c1cccs1	-5.9	-4.1	-1.3	-2.4	-16.3	5.1	i	-7.1
Cn1c(=O)c(=O)n(C)c2cc(S(=O)(=O)N3CCN(c4ccc(F)cc4)CC3)ccc21	-33.5	-4.9	0.7	-2.2	2.9	13.1	i	-1.5
CC[n+]1c(C)sc2c3ccsc3ccc21	/	-6.5	-0.3	6.5	-7.7	-4.4	i	12.1

Next results
SMILES	UUG fidelity	CSC inhib	MT1-MMP act inh	MT1-MMP act inh RFP	eIF4H FP inh	Env fusion inh	Rce1 inhib	PABP polyA inh	others
NC(=O)c1cc(S(=O)(=O)NCCCc2ccccc2)cs1	-0.9	-16.0	4.1	-7.2	-12.6	-5.9	i	-4.2
CCOC(=O)CC(NC(=O)c1cc2cc(Br)ccc2oc1=O)c1cccc([N+](=O)[O-])c1 (stereo not given)	-16.7	3.1	-0.3	-2.5	-0.3	/	i	-6.9
O=C1CCCc2sccc2N1	-4.0	-6.7	-1.5	-1.4	-3.6	/	i	-6.1
O=C(CSc1nnc(Cc2cc(=O)[nH]c(=O)[nH]2)n1-c1ccccc1)N1CCCCC1	4.4	-2.6	-1.5	0.6	4.8	17.8	i	2.8
CC(OC(=O)c1ccccc1C(=O)O)c1ccccc1 (stereo not given)	-8.8	/	1.4	3.7	/	-9.9	/	/
O=C(CCCOC(=O)c1ccc(O)cc1O)c1ccc(F)cc1	0.5	6.4	-5.6	-0.5	/	-16.0	i	/
COc1ccc(C(=O)N/C(=C\c2ccccc2)C(=O)N2CCOCC2)cc1	16.1	-3.5	-2.2	3.8	-12.8	-11.2	i	1.0
CC1(C(=O)NS(=O)(=O)c2ccc(Br)cc2)CCN1C(=O)CCc1cccs1 (stereo not given)	5.0	/	2.5	6.0	/	-8.2	/	/
CCc1ccccc1NS(=O)(=O)c1cc2c3c(c1)CCN3C(=O)CC2	/	/	7.7	-1.2	/	-32.0	i	/
CCOc1ccc(NC(=O)c2sc(N3CCOCC3)nc2-c2ccccc2)cc1	/	/	-5.1	-5.2	-3.3	17.7	i	-19.8
CC(C)Oc1cccc(OCCN2C(=O)c3ccccc3C2=O)c1	/	5.0	-5.9	-10.3	1.7	5.4	i	-13.6
COc1cc2c3c(c1OC)C1(C=CC(=NNC(N)=O)C=C1)CC3N(C(C)=O)CC2 (stereo not given)	/	-13.6	2.4	0.5	5.8	13.9	i	3.0
Cc1ccc(NC(=O)CN(C)C(=O)Cc2ccc(Cl)c(Cl)c2)cc1	62.2	7.1	-1.8	-3.0	8.0	6.1	i	-1.3
C/C(CC(=O)NC(C)c1ccccc1)=N\NC(N)=S (stereo not given)	-23.4	-9.2	6.2	1.8	-5.2	-0.9	i	2.4
CC(=O)NNC(=S)Nc1cc(S(=O)(=O)N(C)C)ccc1C	/	-11.4	-3.6	-0.9	-0.2	-4.1	i	2.8
CCOC(=O)[C@@H]1[C@H]2COc3ccc(Br)cc3[C@@H]2N2C(=O)N(c3ccccc3)C(=O)[C@@]12C	-2.7	-11.0	-4.7	-4.5	-2.3	86.8*	i	-4.9
Cc1ccccc1N1CCN(C2CCCN(C(=O)CCn3cnnn3)C2)CC1 (stereo not given)	-7.7	3.3	-2.8	1.7	-2.5	1.1	i	-16.7
CCc1nnc(NC(=O)CSc2nnc(C3CCCCC3)n2-c2ccccc2)s1	/	44.1	1.6	-2.1	-5.7	-78.3	i	-2.3
O=C(c1ccco1)N1CCN(C(=O)c2cc3cc([N+](=O)[O-])ccc3oc2=O)CC1	/	5.3	-5.1	-1.2	3.6	0.1	i	-1.6
CC12CC(NC(=O)N1c1cccc(C(=O)NCc3ccccc3)c1)c1ccccc1O2 (stereo not given)	/	-12.7	/	/	2.2	14.7	i	-3.7
CC1CCN(C(=S)NC(=O)c2ccc(C(C)(C)C)cc2)CC1	-29.7	/	1.8	0.0	-3.9	-15.0	i	-8.2
Cc1ccc(-c2cc(C(=O)NCc3ccco3)c3ccccc3n2)s1	-13.7	0.9	-2.8	-1.7	7.0	/	i	7.3
O=C(Cc1cccc2ccccc12)NN=Cc1ccc2c(c1)CCC2	-3.5	/	-2.9	-5.4	/	14.8	/	/
COc1ccc(C(=O)NC(=S)NCc2ccccc2)cc1OC	-30.3	-1.0	-1.5	-3.5	3.1	9.2	i	-5.0
CC(=O)c1sc2nc(-c3ccco3)ccc2c1N	-9.7	-8.9	-8.7	-3.4	91.1*	-26.4	i	84.3*

Structures above that have a Cl atom, in the order listed:
SMILES	UUG fidelity	CSC inhib	MT1-MMP act inh	MT1-MMP act inh RFP	eIF4H FP inh	Env fusion inh	Rce1 inhib	PABP polyA inh	others
CC(NC(=O)COC(=O)c1cc(NS(=O)(=O)c2ccc(Cl)c([N+](=O)[O-])c2)ccc1O)C1CC2CCC1C2 (stereo not given)	-17.0	108.1*	6.9	1.2	0.3	16.3	i	-8.1
CN(CC(=O)N1CCN(c2cccc(Cl)c2)CC1)S(=O)(=O)c1cccs1	-5.9	-4.1	-1.3	-2.4	-16.3	5.1	i	-7.1
Cc1ccc(NC(=O)CN(C)C(=O)Cc2ccc(Cl)c(Cl)c2)cc1	62.2	7.1	-1.8	-3.0	8.0	6.1	i	-1.3

The results go on.
SMILES	UUG fidelity	CSC inhib	MT1-MMP act inh	MT1-MMP act inh RFP	eIF4H FP inh	Env fusion inh	Rce1 inhib	PABP polyA inh	others
O=C(NCCN1CCOCC1)C1CC(=O)N(c2ccc(F)cc2)C1 (stereo not given)	-18.3	-4.5	0.9	2.5	-0.3	1.9	i	-3.3
Cc1ccc(-n2c(SCC(=O)Nc3ccc4c(c3)OCCO4)nnc2-c2ccco2)cc1	/	-16.2	1.4	-1.8	-6.9	/	i	-0.8
COc1ccc2c(C)c(CC(=O)N3C[C@H]4C[C@@H](C3)c3cccc(=O)n3C4)c(=O)oc2c1OC	-5.9	3.5	14.6	7.3	-1.5	/	i	11.8
CCOc1ccc2oc(C(=O)N3CCCN(C)CC3)c(C)c2c1	-14.7	-12.6	0.4	0.0	/	/	/	/
COc1ccccc1CNC(=O)c1ccc(-c2ccccc2C(F)(F)F)o1	16.3	30.9	0.2	-7.9	7.0	3.0	i	-4.0
O=Cc1cn(CC(=O)N2CCCCCC2)c2ccccc12	-9.7	-4.4	-1.3	-1.8	1.9	18.7	i	-12.4
CCOC(=O)c1cc(-c2ccccc2)nn1CCC#N	-8.7	-4.3	-0.5	2.8	9.2	-13.8	i	14.6
COC(=O)Cn1c2ccc(Cl)cc2c2nc(C)sc21	/	-14.5	1.8	2.2	-7.9	-11.7	i	-14.6
COc1ccc(-c2cc(C(F)(F)F)nc(N3CCOCC3)n2)cc1OC	-13.9	9.5	-3.1	-8.0	-7.8	-9.2	i	-3.9
CCc1nnc(NS(=O)(=O)c2ccc(Nc3ccc4nonc4c3[N+](=O)[O-])cc2)s1	/	-0.2	1.2	1.3	-3.8	-2.9	i	14.7
Cc1c(Cl)cnc(NC(=O)COC(=O)/C=C/c2ccco2)c1Cl	0.7	/	-10.3	3.3	/	1.0	/	/
O=C(CC(CC(=O)c1ccccc1)c1ccncc1)c1ccccc1	-17.0	/	-4.4	-2.4	/	-5.7	/	/
COc1cccc(/C=N/n2nnnc2N)c1O	/	-1.0	2.4	5.1	3.6	2.7	i	-3.1
CC(=O)Nc1nc(SCC(=O)Nc2nnc(C)s2)[nH]c(=O)c1NC(=O)c1cccs1	-6.9	24.8	2.6	4.4	8.0	-0.3	i	-3.9

Screening results as filed in PubChem.
